RanGTP-Impb inh: inhibitors of RanGTP-importin-beta interaction, primary screen, biochemical, FRET, CFP-Ran, YFP-importin-beta, homogeneous. Ran GTPase (GTP-bound) - importin-beta complex. cell-free CFP-Ran/YFP-importin-beta FRET ratio. inhibition, % (no concentration beside the values). hit rate 1.1% among 300,000;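 active means most replicates above 15%; inconclusive means exactly half above 15%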;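 further: 0% = DMSO wells and 100% = Ran loaded with GDP instead of GTP; wells of about 40 µL received 100 nL stock; the first replicate is given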
Calb FLC: C. albicans growth inhibition with fluconazole, primary screen, CaCi-2 strain, Alamar Blue fluorescence | C. albicans CaCi-2 (fluconazole-resistant clinical isolate) + fluconazole, 48 h | growth inhibition, % (no concentration beside the values) | hit rate 0.57% among 300,000;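 active means most replicates above 75%; inconclusive means exactly half above 75%; inactive means most below 75%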;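 further: all wells also contain fluconazole at 8 µg/ml as a sub-toxic cotreatment; 0% = median of DMSO wells and 100% = median of geldanamycin control wells; wells of about 8 µL received 7.5 nL stock; the first replicate is given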
UCH37 DUB inh: inhibitors of human UCH37 deubiquitinase, primary screen, biochemical, Ub-AMC cleavage, fluorescence; purified proteasome/UCH37; Ubiquitin carboxyl-terminal hydrolase isozyme L5 (Homo sapiens), Q9Y5K5; hit rate 0.33% among 330,000; inhibition, % (concentration not given with the values); AID 588478, 2011;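 active means mean of two replicates above 20%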;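 further: 0% = compound-free wells with enzyme and 100% = wells lacking proteasome; stock transfer was 100 nL into about 20 µL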
Target sequence (Q9Y5K5 whole entry, looked up): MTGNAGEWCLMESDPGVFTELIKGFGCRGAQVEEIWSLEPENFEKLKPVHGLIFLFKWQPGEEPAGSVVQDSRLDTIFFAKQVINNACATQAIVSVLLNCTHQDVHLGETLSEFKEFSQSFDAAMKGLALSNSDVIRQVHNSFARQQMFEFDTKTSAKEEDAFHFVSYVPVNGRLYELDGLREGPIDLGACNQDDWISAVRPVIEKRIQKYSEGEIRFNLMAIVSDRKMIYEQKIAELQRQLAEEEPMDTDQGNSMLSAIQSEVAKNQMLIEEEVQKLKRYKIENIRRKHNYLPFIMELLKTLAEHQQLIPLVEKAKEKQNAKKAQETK
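assay system = human UCH37 enzyme supplied as purified proteasome complex | amount = proteasome at 0.15 nM in the dispensed enzyme solution | schedule = 30 min compound-proteasome preincubation then 25 min substrate reaction, room temperature | measured by = fluorescence, ex 355 nm, em 460 nm | benchmarks = no-proteasome wells (full inhibition) and compound-free wells (no inhibition)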
B2AR ag: beta2AR agonists driving receptor internalization, primary screen, cell-based, FAP fluorogen, flow cytometry; Beta-2 adrenergic receptor (Homo sapiens), P07550; Am2.2-beta2AR cells; reference of the scale not given here; response, % (test concentration not listed); hit rate 0.43% among 340,000; AID 504454, 2011;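 active means response above a set limit, near 3 SD of response in nonfluorescent compounds, cut at about 42% in these data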;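 further: stock transfer was 100 nL into about 11 µL; a reference agonist was the positive control; negative values mostly stem from fluorescent compounds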
Target sequence (P07550 whole entry, looked up): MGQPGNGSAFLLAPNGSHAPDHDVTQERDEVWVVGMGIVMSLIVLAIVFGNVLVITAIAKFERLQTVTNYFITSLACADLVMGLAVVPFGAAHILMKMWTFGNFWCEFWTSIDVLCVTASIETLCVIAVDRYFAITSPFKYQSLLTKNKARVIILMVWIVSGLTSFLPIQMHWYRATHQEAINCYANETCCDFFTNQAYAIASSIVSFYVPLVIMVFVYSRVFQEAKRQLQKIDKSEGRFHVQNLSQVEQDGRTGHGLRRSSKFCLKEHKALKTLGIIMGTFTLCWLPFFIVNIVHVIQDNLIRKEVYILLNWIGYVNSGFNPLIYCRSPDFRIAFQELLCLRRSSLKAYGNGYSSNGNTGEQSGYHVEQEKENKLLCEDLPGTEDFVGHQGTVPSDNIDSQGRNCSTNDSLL
A1 inh: caspase 3/7 activation in MEF A1-2A-BIM cells, primary screen, A1 inhibitor project, cell-based, luminescence, HTS | Caspase-Glo 3/7 luminescence, 3 h; percent of clofoctol response, vehicle zero | caspase activation, % (test concentration not listed) | hit rate 0.066% among 330,000;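 active means over half of replicate activation scores above 10%, or exactly half above 10 with the replicate mean above 10; inconclusive means replicate mean below 10 yet half the replicates above 10; inactive means over half of replicates below 10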;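 further: wells of about 30 µL received 50 nL stock; many hits fall short of the cut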
LANA-H2B inh: blockers of LANA interaction with H2A/H2B – biochemical, FP readout, HTS, primary screen. Protein LANA1 (Human herpesvirus 8 type P (isolate GK18)), Q9QR71. cell-free LANA-H2A/H2B peptide, fluorescence polarization. inhibition, % (concentration not given with the values). hit rate 0.6% among 320,000. AID 2629, 2010; in the data active means inhibition mostly above about 10%, no sharp cut-off; inactive means mostly below about 6.7%;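 further: stock transfer was 7.5 nL into about 10 µL; 0% = median of vehicle wells and 100% = median of positive control wells; one replicate is shown; the record names a cut of 25% in any replicate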
Beta cell apopt: inhibitors of cytokine-induced beta cell apoptosis, primary screen, luminescence; INS-1E cytokine-induced death, ATP luminescence, 48 h; percent of positive-control rescue, neutral wells zero; protection from apoptosis, % (test concentration not listed); hit rate 0.8% among 300,000; AID 435005, 2010;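 active means all replicates at 75% or more, or half of them and the mean; inconclusive means half reach 75% but not the mean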;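 further: 0% = cytokine-treated negative control wells and 100% = positive control rescue; higher means more ATP so stronger rescue from cytokine killing; wells of about 40 µL received 100 nL stock; the first replicate is given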
T cruzi repl: inhibitors of intracellular T. cruzi growth, primary screen, luminescence, NIH3T3 host cells | T. cruzi beta-gal in NIH3T3, 90 h | inhibition, % (test concentration not listed) | hit rate 1.4% among 300,000;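 active means mean inhibition across valid replicates above about 55%, limit read from the data; inconclusive means mean below that limit but half or more replicates reach it; inactive means mean below it, under half of replicates reach it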;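 further: signal also drops with host cell toxicity which is not excluded here; 0% = plate median of DMSO wells and 100% = zero luminescence signal; higher percent means less beta-gal luminescence so fewer parasites; stock transfer was 50 nL into about 50 µL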
* hit, by the source's call; ? = inconclusive; . = not tested or not shown; + = active, no number.

Start of the data: the first three compounds (preview)
item	canonical_smiles	RanGTP-Impb inh	Calb FLC	UCH37 DUB inh	B2AR ag
1	CCC1CCCCN1C(=O)CSc1nnc(-c2ccc(Cl)cc2)o1 (stereo unspecified)	?	15	4.3	-8
2	CC1CCN(C(=O)c2ccc(N3C(=O)c4ccccc4C3=O)cc2)CC1	3.3	-4	0.5	2
3	Cc1cc(C)c(C)c(S(=O)(=O)Nc2ccccc2C(=O)NCCCN2CCOCC2)c1C	-2.9	14	-7.8	-7

item	A1 inh	LANA-H2B inh	Beta cell apopt	T cruzi repl
1	-0.2	1.3	5	12
2	-2.1	-7.2	-3	-6
3	-0.4	4.1	1	28

This part in full, repeating the preview:
item	canonical_smiles	RanGTP-Impb inh	Calb FLC	UCH37 DUB inh	B2AR ag
1	CCC1CCCCN1C(=O)CSc1nnc(-c2ccc(Cl)cc2)o1 (stereo unspecified)	?	15	4.3	-8
2	CC1CCN(C(=O)c2ccc(N3C(=O)c4ccccc4C3=O)cc2)CC1	3.3	-4	0.5	2
3	Cc1cc(C)c(C)c(S(=O)(=O)Nc2ccccc2C(=O)NCCCN2CCOCC2)c1C	-2.9	14	-7.8	-7
4	COc1ccccc1-n1cnnc1SCC(=O)Nc1ncc(Cl)cc1Cl	2.4	-1	3.3	-9
5	CCOC(=O)C1C(=O)CC(C)(O)C(C(=O)OCC)C1c1cccc(OC)c1 (stereo unspecified)	1.6	-4	5.0	7
6	Cc1cc(C)n(-c2nc3c(c(=O)[nH]c(=O)n3C)n2C)n1	6.9	0	4.9	6
7	CCOc1cc(CNc2ccccc2)cc(Br)c1OCc1ccccc1F	0.1	-18	2.3	-2
8	CC(Oc1cccnc1[N+](=O)[O-])C(=O)Nc1ccc(Cl)cn1 (stereo unspecified)	.	.	1.9	-15
9	COc1ccc(CCNC(=O)c2nnc(Cc3ccc(Cl)cc3)o2)cc1OC	0.5	-1	2.2	-5
10	CCc1nn(C(C)C(=O)Nc2cccc(C)c2C)c(=O)c2cc3occc3n12 (stereo unspecified)	4.1	4	-1.4	-12
11	COc1ccc(CCNS(=O)(=O)c2ccc(Cl)s2)cc1OC	-0.1	5	2.9	-2
12	O=C1c2ccccc2S(=O)(=O)N1CC(O)COc1ccc(Cl)cc1 (stereo unspecified)	2.5	2	3.9	7

item	A1 inh	LANA-H2B inh	Beta cell apopt	T cruzi repl
1	-0.2	1.3	5	12
2	-2.1	-7.2	-3	-6
3	-0.4	4.1	1	28
4	0.1	0.0	-1	5
5	-0.4	9.3	7	8
6	-0.2	2.0	0	-7
7	0.6	-1.4	2	-7
8	1.2	2.9	-4	.
9	0.9	-3.8	2	5
10	0.2	-2.1	0	40
11	-0.1	2.9	-1	0
12	0.7	3.2	-3	0

Following part:
item	canonical_smiles	RanGTP-Impb inh	Calb FLC	UCH37 DUB inh	B2AR ag
13	O=C(NCCCN1CCc2ccccc2C1)C1CCN(c2nnc(-n3cccc3)s2)CC1	0.7	-2	5.3	-15
14	CN(C)C(=O)CSc1nc(-c2ccccc2)c(-c2ccccc2)o1	-0.5	-3	-3.9	-8
15	Cc1ccc(C)c(N(CC(=O)NCCc2ccccc2)C(=O)CCC(=O)Nc2ccccn2)c1	1.6	5	4.3	-9
16	O=S(=O)(c1ccccc1)N(CC1CO1)c1cccc2ccccc12 (stereo unspecified)	-2.9	23	3.5	-3
17	O=C(O)CCNC(=O)/C(=C/c1ccco1)NC(=O)c1ccco1	4.5	-11	4.5	-5
18	Cc1ccc(OCC(=O)Nc2nnc(S(=O)(=O)N3CCCCCC3)s2)cc1	-2.2	-16	3.1	4
19	O=c1[nH]c2cc(Cl)ccc2c(O)c1-c1cccc(Oc2ccccc2)c1	3.5	8	-1.7	-3
20	CCN(CC)S(=O)(=O)c1ccc(C)c(NC(=O)/C=C/c2cccs2)c1	2.2	3	3.1	-3
21	COc1ccc(OC)c(NC(=O)CCN2CCCCC2)c1	4.0	10	4.2	6
22	COc1cccc(NC(=O)COC(=O)c2ccc(S(=O)(=O)NCc3ccco3)cc2)c1	0.0	10	3.3	-2
23	O=S(=O)(c1cccc(F)c1)N1CCN(Cc2cc3c(cc2Br)OCCO3)CC1	.	.	1.4	1
24	CO/N=C/c1cccn1-c1nccc(N(C)C)c1C#N	-3.8	17	.	1

item	A1 inh	LANA-H2B inh	Beta cell apopt	T cruzi repl
13	0.1	-4.2	1	15
14	-0.4	0.4	-4	15
15	0.0	6.3	-6	4
16	1.3	-2.8	-4	16
17	0.0	1.5	-4	1
18	0.3	1.4	-4	7
19	0.1	-4.9	.	-2
20	0.4	2.5	0	-10
21	-0.4	0.7	.	-1
22	0.0	1.1	1	2
23	-0.6	1.0	4	.
24	0.8	-2.4	-7	2

Carrying on.
item	canonical_smiles	RanGTP-Impb inh	Calb FLC	UCH37 DUB inh	B2AR ag
25	COc1ccc(-c2nnc(SCC(=O)c3ccc(O)cc3O)o2)cc1	4.8	2	4.2	24
26	Cc1nn(C(C)C(=O)NCc2ccco2)c(C)c1[N+](=O)[O-] (stereo unspecified)	2.0	-4	3.4	3
27	CN(Cc1ccn[nH]1)C(=O)C1CCC(=O)N(Cc2cccc(C(F)(F)F)c2)C1 (stereo unspecified)	0.6	0	4.5	-4
28	O=C(CN1CCN(CCN2C(=O)c3cccc4cccc(c34)C2=O)CC1)c1ccc(F)cc1	-1.6	-1	-14	-3
29	COc1cccc(N(CC(=O)Nc2cccc(N(C)S(C)(=O)=O)c2)S(C)(=O)=O)c1	-0.6	6	0.4	-9
30	Cc1cc(NC(=O)C(C)SCC(=O)N(C)Cc2ccccc2F)no1 (stereo unspecified)	.	.	2.3	6
31	CC(C)(C)c1ccc(OCCCC(=O)NC2=NCCS2)cc1	1.3	2	-0.5	-9
32	c1ccc(C2CC3CC(c4ccccc4)N2O3)cc1 (stereo unspecified)	-7.3	-4	1.5	5
33	CC(Sc1ccc2c(c1)OCCO2)C(=O)Nc1ncc(Cl)cc1Cl (stereo unspecified)	-2.7	7	-6.0	-16
34	O=C(Nn1c(C2CCCCC2)nc2ccccc2c1=O)c1ccc([N+](=O)[O-])cc1	0.0	-8	2.4	10
35	COc1cccc(NC(=O)CN(C)C(=O)c2ccc(NS(=O)(=O)c3ccc(F)cc3)cc2)c1	.	.	1.5	-4
36	CCn1cc(C(=O)OCC(=O)N2C(C)CCCC2C)c(=O)c2ccc(C)nc21 (stereo unspecified)	0.6	8	3.4	-1

item	A1 inh	LANA-H2B inh	Beta cell apopt	T cruzi repl
25	-0.5	0.1	0	-3
26	0.7	0.2	-3	4
27	.	.	.	-18
28	0.2	0.2	1	15
29	0.4	-7.3	-2	-15
30	0.5	-1.7	-5	.
31	-1.2	2.9	-8	-11
32	0.1	0.9	-6	-2
33	0.2	0.7	-8	9
34	1.0	0.2	5	38
35	-1.1	3.3	4	.
36	0.6	-3.1	6	-5

(list continues)
item	canonical_smiles	RanGTP-Impb inh	Calb FLC	UCH37 DUB inh	B2AR ag
37	Cc1c(N(CC(=O)O)S(=O)(=O)c2ccccc2)c(=O)n(-c2ccccc2)n1C	2.4	-1	3.5	-2
38	CN1CCN(c2ccc(CNS(=O)(=O)c3ccsc3)cc2)CC1	2.2	6	4.3	1
39	CSc1ccc(CN(C)CC(=O)Nc2cccc(Br)c2)cc1	3.1	18	-1.3	19
40	CC1CCCC(C)N1/N=C/c1ccccc1C(=O)O (stereo unspecified)	4.4	12	.	2
41	O=C(Nc1cccc(-c2ccc3nncn3n2)c1)c1ccco1	-4.7	1	3.6	-15
42	COc1ccc(S(=O)(=O)N2CCC(C(=O)NCCC(=O)Nc3cccc(OC)c3)CC2)cc1	-0.5	2	0.8	4
43	CCOc1ccccc1C1C(C#N)=C(N)Nc2onc(-c3ccccc3)c21 (stereo unspecified)	-1.5	3	1.8	-3
44	Cc1ccc(OCCNC(=O)C2CCCCC2)cc1	-5.1	6	5.5	-6
45	O=C1COc2ccc(S(=O)(=O)NCc3ccc(Cl)cc3)cc2N1	?	0	1.2	6
46	Cc1ccccc1NC(=O)c1cccc(N2C(=O)C3C4CCC(C4)C3C2=O)c1 (stereo unspecified)	-0.7	8	6.0	-7
47	COc1ccccc1N1CCN(C(=O)c2ccc(S(=O)(=O)N3CCCCCC3)cc2)CC1	?	?	2.9	5
48	COC(=O)COc1ccc(S(=O)(=O)Nc2ccc(C(N)=O)cc2)cc1	2.6	18	5.6	-8

item	A1 inh	LANA-H2B inh	Beta cell apopt	T cruzi repl
37	-0.7	3.3	-9	-5
38	-0.2	0.0	2	0
39	-0.1	-2.0	-13	-3
40	-0.3	1.2	-2	-1
41	-1.0	1.0	-9	-11
42	-0.6	4.3	.	1
43	0.9	1.6	-2	-11
44	-0.4	10	1	-8
45	.	.	.	13
46	0.4	3.0	-3	-8
47	-0.5	-3.9	6	.
48	0.5	4.0	-9	7

Looked up above:
CSc1ccc(CN(C)CC(=O)Nc2cccc(Br)c2)cc1 @ T cruzi repl = -3
COc1ccccc1N1CCN(C(=O)c2ccc(S(=O)(=O)N3CCCCCC3)cc2)CC1 @ UCH37 DUB inh = 2.9
Cc1ccccc1NC(=O)c1cccc(N2C(=O)C3C4CCC(C4)C3C2=O)c1 (stereo unspecified) @ B2AR ag = -7
Cc1c(N(CC(=O)O)S(=O)(=O)c2ccccc2)c(=O)n(-c2ccccc2)n1C @ Calb FLC = -1

More records.
item	canonical_smiles	RanGTP-Impb inh	Calb FLC	UCH37 DUB inh	B2AR ag
49	Cc1csc(NC(=O)CSc2nnc(-c3ccncc3)n2C)n1	2.0	-8	6.4	6
50	O=C(c1cc(-c2ccncc2)nc2ccc(Br)cc12)N1CCN(c2ccccn2)CC1	8.7	-25	1.6	8
51	CC(C)Cc1nnc(NC(=O)CCC(=O)N2CCN(c3ccccn3)CC2)s1	4.8	?	0.1	3
52	Cc1ccc(S(=O)(=O)Cn2nnnc2C(C(C)C)N2CCN(Cc3ccco3)CC2)cc1 (stereo unspecified)	0.6	-3	4.4	-6
53	CCC(=O)Nc1cccc(NC(=O)c2ccc(C)cc2Cl)c1	1.2	-2	3.1	-6
54	COc1ccc(CSc2nnc(C)s2)cc1F	?	0	4.6	-2
55	O=C1c2cc(S(=O)(=O)NCCO)ccc2-c2ccc(S(=O)(=O)NCCO)cc21	1.9	29	3.6	8

item	A1 inh	LANA-H2B inh	Beta cell apopt	T cruzi repl
49	1.0	-2.7	-4	-14
50	1.3	3.4	1	?
51	-0.4	1.8	.	-8
52	-0.3	0.0	-1	17
53	-1.4	1.5	-5	-13
54	-0.5	+	-10	-13
55	-0.9	5.3	-3	-12
